Calb FLC: C. albicans growth modulation with fluconazole; C. albicans CaCi-2 (fluconazole-resistant clinical isolate) + fluconazole, Alamar Blue growth, 48 h; 0.57% of 300,000 active; growth inhibition, % (no concentration beside the values);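 active = most replicates above 75%; inconclusive = exactly half above 75%; inactive = most below 75%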;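 note: all wells also contain fluconazole at 8 µg/ml as a sub-toxic cotreatment; 0% = median of DMSO wells and 100% = median of geldanamycin control wells; wells of about 8 µL received 7.5 nL stock; the first replicate is given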
RanGTP-Impb inh: inhibitors of RanGTP-importin-beta interaction, primary screen, biochemical, FRET, CFP-Ran, YFP-importin-beta, homogeneous. cell-free CFP-Ran/YFP-importin-beta FRET ratio. inhibition, % (test concentration not listed). 1.1% of 300,000 active. AID 2216;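 active = most replicates above 15%; inconclusive = exactly half above 15%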;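 note: 0% = DMSO wells and 100% = Ran loaded with GDP instead of GTP; wells of about 40 µL received 100 nL stock; the first replicate is given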
T cruzi repl: T. cruzi replication inhibition; 1.4% of 300,000 active; T. cruzi beta-gal in NIH3T3, luminescence, 90 h; AID 1885; inhibition, % (no concentration beside the values);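 active = mean inhibition across valid replicates above about 55%, limit read from the data; inconclusive = mean below that limit but half or more replicates reach it; inactive = mean below it, under half of replicates reach it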;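 note: signal also drops with host cell toxicity which is not excluded here; 0% = plate median of DMSO wells and 100% = zero luminescence signal; higher percent means less beta-gal luminescence so fewer parasites; stock transfer was 50 nL into about 50 µL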
Beta apoptosis: blocks beta cell apoptosis | INS-1E cytokine-induced death, ATP luminescence, 48 h; percent of positive-control rescue, neutral wells zero | protection from apoptosis, % (no concentration beside the values) | 0.8% of 300,000 active | AID 435005;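 active = all replicates at 75% or more, or half of them and the mean; inconclusive = half reach 75% but not the mean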;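 note: 0% = cytokine-treated negative control wells and 100% = positive control rescue; higher means more ATP so stronger rescue from cytokine killing; wells of about 40 µL received 100 nL stock; the first replicate is given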
LANA-H2B inh: blocks KSHV LANA binding to histone H2A/H2B | Q9QR71 | cell-free LANA-H2A/H2B peptide, fluorescence polarization | inhibition, % (concentration not given with the values) | 0.6% of 320,000 active | AID 2629; in the data active = inhibition mostly above about 10%, no sharp cut-off; inactive = mostly below about 6.7%;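 note: stock transfer was 7.5 nL into about 10 µL; 0% = median of vehicle wells and 100% = median of positive control wells; one replicate is shown; the record names a cut of 25% in any replicate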
Target sequence (Q9QR71 whole entry, looked up): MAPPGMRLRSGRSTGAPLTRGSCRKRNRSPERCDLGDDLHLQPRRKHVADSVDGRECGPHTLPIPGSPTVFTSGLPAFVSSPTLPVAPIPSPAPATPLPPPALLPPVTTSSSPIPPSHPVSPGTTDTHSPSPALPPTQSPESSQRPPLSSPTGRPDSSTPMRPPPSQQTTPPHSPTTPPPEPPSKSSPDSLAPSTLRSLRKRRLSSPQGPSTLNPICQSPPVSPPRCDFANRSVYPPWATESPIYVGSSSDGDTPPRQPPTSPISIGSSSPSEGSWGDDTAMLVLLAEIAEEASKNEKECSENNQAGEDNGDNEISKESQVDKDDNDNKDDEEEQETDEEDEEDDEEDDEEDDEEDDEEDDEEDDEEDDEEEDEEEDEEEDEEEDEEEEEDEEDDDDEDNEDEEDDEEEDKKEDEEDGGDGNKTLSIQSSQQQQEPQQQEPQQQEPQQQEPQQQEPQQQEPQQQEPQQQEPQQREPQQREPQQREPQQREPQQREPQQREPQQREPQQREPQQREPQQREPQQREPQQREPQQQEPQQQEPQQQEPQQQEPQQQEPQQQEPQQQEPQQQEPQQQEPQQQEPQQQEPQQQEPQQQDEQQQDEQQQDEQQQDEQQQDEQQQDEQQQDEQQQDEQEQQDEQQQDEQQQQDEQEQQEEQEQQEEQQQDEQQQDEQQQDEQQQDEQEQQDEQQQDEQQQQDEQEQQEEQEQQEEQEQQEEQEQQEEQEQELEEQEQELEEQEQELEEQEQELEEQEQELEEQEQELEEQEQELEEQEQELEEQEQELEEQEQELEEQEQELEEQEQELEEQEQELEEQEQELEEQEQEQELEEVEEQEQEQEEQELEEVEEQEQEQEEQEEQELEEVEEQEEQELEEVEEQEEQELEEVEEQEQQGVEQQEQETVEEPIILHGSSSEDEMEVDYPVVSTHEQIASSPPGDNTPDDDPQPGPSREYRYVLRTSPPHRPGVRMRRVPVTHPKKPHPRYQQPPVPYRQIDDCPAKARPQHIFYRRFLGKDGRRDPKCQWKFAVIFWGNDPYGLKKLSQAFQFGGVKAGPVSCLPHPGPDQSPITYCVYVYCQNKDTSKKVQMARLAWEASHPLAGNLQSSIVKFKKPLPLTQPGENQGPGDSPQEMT
Vif TR-FRET: inhibitors of Vif binding to APOBEC3G peptide, primary screen, biochemical, TR-FRET, GST-Vif 1-94, biotin-A3G peptide, dose response retest (AID 1117319). 0.57% of 260,000 active. TR-FRET GST-Vif / biotin-A3G peptide binding; higher % means a stronger effect; test concentration not given here; strong numbers were not always called active. inhibition, %, or IC50 in µM where a hit was titrated;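 active = above the screen mean plus three standard deviations and confirmed in dose response; inconclusive = results disagree or hit not tested in dose response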;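 note: Vif residues 1-94 fused to GST binding biotinylated APOBEC3G peptide 110-148; 0% = full assay without inhibitor and 100% = GST in place of GST-Vif; retest series ran down from 100 µM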
Bfl-1 A1 inh: inhibitors of the anti-apoptotic protein A1, read as caspase activation | 0.066% of 330,000 active | AID 2462 | MEF A1-2A-BIM cells, Caspase-Glo 3/7 luminescence, 3 h; percent of clofoctol response, vehicle zero | caspase activation, % (no concentration beside the values);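 active = over half of replicate activation scores above 10%, or exactly half above 10 with the replicate mean above 10; inconclusive = replicate mean below 10 yet half the replicates above 10; inactive = over half of replicates below 10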;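 note: wells of about 30 µL received 50 nL stock; many hits fall short of the cut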
Active calls of the source: *; u = inconclusive; x = no result given; & = joins results of further samples.

structure	Calb FLC	RanGTP-Impb inh	T cruzi repl	Beta apoptosis	LANA-H2B inh	Vif TR-FRET	Bfl-1 A1 inh
Cc1nc2nc(-c3ccc(Cl)cc3)[nH]n2c(=O)c1C	x	x	x	x	x	-3%	x
O=C(O)CC/C(=N\Nc1ccc(S(=O)(=O)N2CCCC2)cc1[N+](=O)[O-])c1cccs1	x	x	x	x	x	6%	x
CCn1c(=O)c2cc(C(=O)N3CCN(C(=O)c4ccco4)CC3)sc2c2ccccc21	x	x	x	x	x	18%	x
COc1ccc(-c2ccc3c(n2)sc2c(=O)[nH]c(=O)[nH]c23)cc1OC	x	x	x	x	x	31%	x
CCOC(=O)c1cc2c(=O)n3cccc(C)c3nc2n(Cc2ccco2)c1=NC(=O)c1cccnc1	x	x	x	x	x	u	x
CCCCc1c(C)nc2ccc(Br)cc2c1SCCC#N	x	x	24	x	x	66%	x
CCCCC(c1nnnn1CC1CCCO1)N1CCN(c2nc3ccccc3s2)CC1 (centres undefined)	8	x	x	x	x	2%	x
O=c1c2c3c(sc2nc2sc(CN4CCOCC4)cn12)CCCC3	30	x	x	x	x	2%	x
O=C(c1c[nH]c2ccc(S(=O)(=O)N3CCC4(CC3)OCCO4)cc2c1=O)N1CCOCC1	x	3.0	-1	x	x	0%	x
Cc1ccc(S(=O)(=O)N[C@H](C(=O)N2CCC(C(=O)N3CCC[C@H]3C(=O)O)CC2)C(C)C)cc1	x	3.1	-7	x	x	4%	x
CO[C@H]1C=CO[C@@]2(C)Oc3c(C)c(O)c4c(O)c(c(C=NN5CCN(C6CCCC6)CC5)c(O)c4c3C2=O)NC(=O)C(C)=CC=C[C@H](C)[C@H](O)[C@@H](C)[C@@H](O)[C@@H](C)[C@H](OC(C)=O)[C@@H]1C	x	-11	5	x	x	-9%	x
CC1(C)Cc2c(c(N3CCCCC3)[nH]c(=S)c2C#N)CS1	x	2.7	-15	x	x	17%	x
O=c1c2ccccc2[nH]c(=S)n1CCN1CCC(=C(c2ccc(F)cc2)c2ccc(F)cc2)CC1	x	-4.4	2	x	x	1%	x
CCC(=O)c1ccc(OCC(=O)O)cc1	x	3.5	-1	x	x	6%	x
Cc1cc(C)c2c(n1)sc1c(=O)n(Cc3ccccc3Cl)nnc12	-3	-3.6	x	x	x	-4%	x
CC1CCN(c2nc3c(c(=O)n(C)c(=O)n3C)n2CCSc2nc3ccccc3o2)CC1	0	4.0	x	x	x	-4%	x
COc1ccc(N2CCN(C(c3ccccc3OC)c3nnnn3C3CCCC3)CC2)cc1 (centres undefined)	0	3.8	x	x	x	7%&26%	x
COC(=O)c1ccccc1NC(=O)c1sc(N)nc1C	x	x	x	x	-0.1	u	0.4
O=c1/c(=C/c2ccco2)sc2nc(-c3ccccc3Br)nn12	x	x	x	x	2.6	u	0.7
CCOCCCNC(=O)C(NC(=O)CC1NC(=O)NC1=O)c1ccc(Cl)cc1 (centres undefined)	x	x	x	x	2.3	7%	0.4
c1ccc2c(c1)[nH]c1c(N3CCSCC3)ncnc12	x	x	x	x	5.4	-6%	0.2
Cc1cccc2sc(NC(=O)CNS(=O)(=O)c3ccc(Br)s3)nc12	x	x	x	x	0.1	1%	-0.1
CCOc1ccc(-n2cc(C(=O)N3CCCCCC3)c3cc(OC)c(OC)cc3c2=O)cc1	x	x	x	x	-7.1	-4%	-0.4
COc1ccc(C(=O)Nc2ccc(S(=O)(=O)Nc3nccnc3OC)cc2)cc1OC	x	x	x	x	2.2	-4%	-2.8
O=C(NCCCO)Nc1ccc2nc(-c3ccco3)c(-c3ccco3)nc2c1	x	x	x	x	-3.7	0.26µM*	0.6
CC(=O)CCn1c(=O)n(CCC(C)=O)c(=O)n(CCC(C)=O)c1=O	x	x	x	x	-1.6	6%	0.8
CCOC(=O)N1CCN(Cc2nc(N)nc(Nc3ccc(Oc4ccccc4)cc3)n2)CC1	x	x	x	x	1.6	1%	1.0
Cn1c(=O)c2cc(S(=O)(=O)NCCC(=O)N3CC=C(c4ccccc4)CC3)ccc2n(C)c1=O	x	x	x	x	0.7	4%	0.7
Cc1ccc(-c2cnc(SCC(=O)N3CCCc4ccccc43)n2C)cc1	x	x	x	x	-0.7	-1%	0.3
COc1ccc(C(C(=O)NC2CCCCC2)N2CCC3(CC2)OCCO3)cc1 (centres undefined)	x	x	x	x	-10	-2%	0.2
CCOC(=O)CSc1nnc(CNC(=O)c2cccs2)n1-c1cc(C)ccc1C	x	x	x	x	-2.3	u	-0.8
CCOC(=O)N1CCc2c(sc(NC(=O)c3ccc(Cl)s3)c2C(N)=O)C1	x	x	x	x	-0.2	10%	-1.4
O=C(Nc1ccc(Cl)c(C(F)(F)F)c1)c1ccco1	x	x	x	x	1.1	-3%	-0.4
CCC(C)(C)n1nnnc1C(c1cc2cc(C)cc(C)c2[nH]c1=O)N1CCCC1 (centres undefined)	x	x	x	x	5.8	u	1.8
CCOC(=O)C1CCN(C(C(=O)NC2CCCCC2)c2ccc(OC)cc2)CC1 (centres undefined)	x	x	x	x	-8.8	-3%	0.9
O=c1[nH]c2cc3c(cc2cc1C(c1nnnn1C1CCCCC1)N1CCSCC1)OCCO3 (centres undefined)	x	x	x	x	7.7	5%	-0.4
CCOC(=O)Cn1c(=O)c2c(nc(N3CCCCC3)n2Cc2ccccc2)n(C)c1=O	x	x	x	x	0.8	0%	-0.3
COCCNS(=O)(=O)c1ccc(-c2ccc(S(=O)(=O)NCCOC)cc2)cc1	x	x	x	x	7.8	-5%	-0.7
COc1ccc(N2CCN(C(=O)c3cc4c(-c5cccc(OC)c5)nn(C)c4s3)CC2)cc1	x	x	x	x	-1.4	u	0.2
COCCn1c(=S)[nH]c2cc(C(=O)N3CCN(c4ccccc4OC)CC3)ccc2c1=O	x	x	x	x	7.7	19%	-0.8
Cc1cccc(NC2=NC3(CCCCC3)N=C(N)N2)c1	x	x	x	x	-3.5	-3%	0.6
CCOC(=O)CSc1nnc(CNC(=O)c2cccs2)n1-c1cccc(C)c1	x	x	x	x	-3.3	5%	-1.2
O=C(Nc1ccc(F)cc1)N1CCC(c2nc3c(nnn3Cc3cccc(Cl)c3)c(=O)[nH]2)CC1	x	x	x	x	5.9	-3%	-1.1
Cc1ccc2c(C(=O)CN3CCC4(CC3)OCCO4)c(C)[nH]c2c1	x	x	x	x	-2.8	-10%	0.3
Cc1nc(-c2ccc(NS(C)(=O)=O)cc2)cs1	x	x	x	x	-1.0	5%	0.1

3 entries from above, field by field.
CCOC(=O)C1CCN(C(C(=O)NC2CCCCC2)c2ccc(OC)cc2)CC1 (centres undefined)
  Calb FLC = x | RanGTP-Impb inh = x | T cruzi repl = x | Beta apoptosis = x | LANA-H2B inh = -8.8 | Vif TR-FRET = -3% | Bfl-1 A1 inh = 0.9
O=C(Nc1ccc(Cl)c(C(F)(F)F)c1)c1ccco1
  Calb FLC = x | RanGTP-Impb inh = x | T cruzi repl = x | Beta apoptosis = x | LANA-H2B inh = 1.1 | Vif TR-FRET = -3% | Bfl-1 A1 inh = -0.4
CCOC(=O)N1CCc2c(sc(NC(=O)c3ccc(Cl)s3)c2C(N)=O)C1
  Calb FLC = x | RanGTP-Impb inh = x | T cruzi repl = x | Beta apoptosis = x | LANA-H2B inh = -0.2 | Vif TR-FRET = 10% | Bfl-1 A1 inh = -1.4

Next compounds follow:
structure	Calb FLC	RanGTP-Impb inh	T cruzi repl	Beta apoptosis	LANA-H2B inh	Vif TR-FRET	Bfl-1 A1 inh
Cc1nc(SCC(=O)Nc2ccccc2C(F)(F)F)c2c(=O)n(C)c(=O)n(C)c2n1	x	x	x	x	-1.5	2%	1.0
CCn1c(SCC(=O)Nc2ccccc2F)nc2c(c1=O)SC(C)C2 (centres undefined)	x	x	x	x	9.1	u	1.2
Cn1c(N)c(C#N)c(C#N)c1-c1ccccc1	x	x	x	x	1.3	-3%	-0.5
CCOC(=O)CCc1c(C)nc2cc(C3CCCN(C(=O)OC(C)(C)C)C3)[nH]n2c1=O (centres undefined)	x	x	x	x	2.7	-2%	0.9
CC1C=CCC2C(=O)N(c3cccc(C(=O)N4CCN(c5ccc(F)cc5)CC4)c3)C(=O)C12 (centres undefined)	x	x	x	x	2.4	18%	0.3
CC(=O)N1CCc2cc(S(=O)(=O)NCCC(=O)NC3CCN(Cc4ccccc4)CC3)ccc21	x	x	x	x	-2.9	6%	1.2
COc1cc2c(cc1OC)C(c1cc3cc(OC)c(OC)cc3[nH]c1=O)N(C(=O)C1CC1)CC2 (centres undefined)	x	x	x	x	3.3	-1%	-0.7
Cc1ccccc1-n1nc2c(c1NC(=O)c1c(-c3ccccc3Cl)noc1C)CSC2	x	x	x	x	-5.4	14%	0.2
O=C(C1CCN(S(=O)(=O)c2cnc[nH]2)CC1)N1CCN(Cc2ccc3c(c2)OCO3)CC1	x	x	x	x	-9.5	20%	1.0
Cc1cccc(-n2c(CNC(=O)COc3ccccc3)nnc2SCC(=O)Nc2nccs2)c1	x	x	x	x	2.1	-6%	-0.5
CCCCOC(=O)C(C)c1c(C)[nH]c(=S)[nH]c1=O (centres undefined)	x	x	x	x	1.0	10%	1.7
Nc1ccc(O)cc1C(=O)OCC(=O)C12CC3CC(CC(C3)C1)C2	x	x	x	x	5.1	24%	0.4
CCCC(c1nnnn1CCc1ccccc1)N1CCN(C2CCCC2)CC1 (centres undefined)	x	x	x	x	4.6	4%	-1.0
COC(=O)C1OC(OC2CC[C@]3(C)C(CC[C@@]4(C)[C@@H]3CC=C3[C@@H]5CC(C)(C)CC[C@]5(C(=O)OC5OC(CO)C(O)C(O)C5O)CC[C@]34C)C2(C)C)C(O)C(O)C1O[C@H]1OCC(O)C(O)C1O (some centres undefined)	x	x	x	-1	x	-1%	-0.8
COc1ccc(/C=C2\C(=O)N(c3c(Cl)cc(Cl)cc3Cl)N=C2NC(=O)c2cccc([N+](=O)[O-])c2)cc1	x	x	x	-1	x	8%	0.2
COc1cc2cncc(Cc3ccc(Cl)cc3)c2cc1OC	x	x	x	-10	x	-5%	0.3
COc1ccc(C(=O)c2nccc3cc(OC)c(OC)cc23)cc1OC	x	x	x	-8	x	-8%	-0.7
COc1cc(/C=C(\C#N)c2ccccn2)ccc1OCC(=O)Nc1c(Cl)cccc1Cl	x	x	x	7	x	5%	0.0
CN(Cc1ccco1)Cc1ccc(O)c2ncccc12	x	x	x	1	x	0%	0.1
O=c1cc(-c2ccc([N+](=O)[O-])cc2)nc2cc(-c3ccc(Cl)cc3)[nH]n12	x	x	x	2	x	u	-0.7
COc1ccc([C@H]2[C@H](C(=O)C(C)(C)C)N3N=Cc4ccccc4C3[C@]23N=C(c2ccccc2)OC3=O)cc1OC (some centres undefined)	x	x	x	0	1.9	25%	x

Compound activity from PubChem BioAssay.

This is a subset (hit frequency here may not be typical).
